# Anaer choline gr: growth inhibitors of anaerobic choline-fed gram-negatives, minimal medium, absorbance; Gram-negative bacterium anaerobic choline minimal medium; stronger effect = lower value; many inactives read as strong as hits in the columns shown; calls only; 55,000 tested, 0.2% active; AID 1963822, 2024;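 active means growth z-score on choline under -2 at 7 or 20 h with little or no fall on glycerol, limits in tiers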;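 further: stock transfer was 300 nL into about 50 µL; the organism is E. coli; final concentration not given here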
# Anaer choline gr early: further read-out of Anaer choline gr, marked with its call; z-score; measured here: choline growth z-score, timepoint 1;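 score of optical density at 7 h as mean of two plates; lower means less growth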
# Numbers without * were called inactive; i = inactive; & = joins results of further samples.
# Values in the order: Anaer choline gr | Anaer choline gr early
O=S(=O)(NCc1ccc(-c2nn3cnnc3s2)cc1)c1ccccc1
 : i | 0.49
CC(C)(C)C(=O)Nc1ccc2nc(N3CCN(C4CCCCC4)CC3)cc(C(=O)O)c2c1
 : i | -0.46
O=C(NCc1nnc(C(=O)Nc2ccc3c(c2)OCO3)s1)NC1CCCC1
 : i | -0.7
Cc1cc(C2CCCN2Cc2ccc(F)c(Br)c2)on1 (stereo not given)
 : i | 1.8
COC(=O)CC1CN=C(N2CCOCC2)NC1=O (stereo not given)
 : i | -1.7
O=c1ccn(-c2ccc(Cl)cc2)nc1-c1nc(-c2ccc(Br)cc2)no1
 : i | -0.19
CC(C)OC(=O)COc1cc(O)c2c(=O)cc(-c3ccccc3)oc2c1
 : i | 0.24
C=CCn1c(=O)c2ccc(C(=O)NCC(C)C)cc2n2c(=O)n(CC(=O)NC(C)CC)nc12 (stereo not given)
 : i | -0.71
O=C(CNS(=O)(=O)c1cc(-c2noc(C3CCC3)n2)cs1)N1CCN(c2ccccc2)CC1
 : i | 0.42
O=C(Nc1ccc2c(c1)OCCO2)Nc1cc(NC(=O)c2ccccc2)ccc1N1CCCC1
 : i | 1.8
O=C(Cn1nc2c3sccc3ncn2c1=O)Nc1ccccc1Cl
 : i | -0.45
Cc1nc(S(=O)(=O)N2CCC(C(=O)N3CCN(c4ccc(Cl)cc4)CC3)CC2)cn1C
 : i | -2.2
O=S(=O)(c1ccc2c(c1)-c1oncc1CO2)N1CCc2ccccc21
 : i | -0.29
CC1COC(c2cccn2Cc2ccccc2Br)=N1 (stereo not given)
 : i | 0.64
COc1ccccc1CNC(=O)C1=Cc2ccc(C)cc2OC=C1
 : i | 2

# An excerpt of these results, as labelled records.
canonical_smiles: O=c1ccn(-c2ccc(Cl)cc2)nc1-c1nc(-c2ccc(Br)cc2)no1
  Anaer choline gr = i
  Anaer choline gr early = -0.19
canonical_smiles: O=C(Cn1nc2c3sccc3ncn2c1=O)Nc1ccccc1Cl
  Anaer choline gr = i
  Anaer choline gr early = -0.45
canonical_smiles: O=C(Nc1ccc2c(c1)OCCO2)Nc1cc(NC(=O)c2ccccc2)ccc1N1CCCC1
  Anaer choline gr = i
  Anaer choline gr early = 1.8
canonical_smiles: Cc1nc(S(=O)(=O)N2CCC(C(=O)N3CCN(c4ccc(Cl)cc4)CC3)CC2)cn1C
  Anaer choline gr = i
  Anaer choline gr early = -2.2

# (continued)
# Values in the order: Anaer choline gr | Anaer choline gr early
O=C(Cn1cccc1-c1nnc(C2CCC2)o1)N1CCN(C2CCCCC2)CC1
 : i | -0.55
Cc1ccc(-n2c(=O)[nH]c3c(C(N)=O)nc(-c4cccnc4)nc32)cc1
 : i | 2.6
CC1CC(=O)Nc2cc(S(=O)(=O)N3CCC(CN4CCc5ccccc5C4)CC3)ccc2S1 (stereo not given)
 : i | -1.9
O=C(NCCN1CCN(c2ccccc2F)CC1)c1csc(-c2ccncc2)n1
 : i | -0.6
Cn1c(=O)c2nc(SCC(=O)O)n(CCc3ccccc3)c2n(C)c1=O
 : i | 0.72
CC1CCCCN1C(=O)CN1CCSc2ccccc21 (stereo not given)
 : i | 0.21
COc1ncnc(NS(=O)(=O)c2ccc(N)cc2)c1OC
 : i | -0.71&0.48
CCOC(=O)c1c(N)sc(C(N)=O)c1C
 : i | 0.21
CCCn1nc(-n2cnnc2)c(NC(=O)C2CC(=O)N(c3ccc(C)cc3)C2)c1C (stereo not given)
 : i | 0.28
CNC1(C)[C@H]2CC[C@H](C2)C1(C)C (stereo not given in full)
 : i | -1.3
CCc1ccc2c(c1)[C@H]1OCCC[C@H]1C(c1ccc(OC)c(C)c1)N2 (stereo not given in full)
 : i | 0.78
CCN(CC)CCNC(=O)C1CCCN(C(=O)c2[nH]c(C)c(C(=O)OC)c2C)C1 (stereo not given)
 : i | -1.6
CCCCN(Cc1ccccc1)C(=O)c1cc2c(=O)n3ccccc3nc2n1C
 : i | 0.48
COc1ccc2cc3n(c2c1)CC(C)(C(=O)NCC1CCCO1)N(CCC(C)C)C3=O (stereo not given)
 : i | 1.1
CN(C)C(=O)c1ccc2c(c1)nnn2C1CCN(C(=O)Nc2ccc(F)cc2)CC1
 : i | -0.32

# Carrying on.
# Values in the order: Anaer choline gr | Anaer choline gr early
O=C(c1cc2cc(Cl)ccc2[nH]1)N1CCCN(c2ccc(=O)n(-c3ccccc3)n2)CC1
 : i | -1.5
Cc1ccsc1C(=O)Nc1cc2c(cc1Oc1ccccc1)n(C)c(=O)c(=O)n2C
 : i | 0.74
Cc1ccccc1N1C(=O)N(c2ccccc2)C2CS(=O)(=O)CC21 (stereo not given)
 : i | 0.47
COc1ccc(-c2noc(-c3nnn(-c4cccc(OC)c4)c3N)n2)cc1
 : i | -0.93
O=C(Nc1ccc(F)c(Cl)c1)c1ccc(Nc2ccnc(-c3ccc(F)cc3)n2)cc1
 : i | -1.5
O=C(C1CCCC1)N1CCC(c2nc(-c3ccc(F)cc3)no2)CC1
 : i | -0.31
CC(=O)Nc1c2n(c3ccc(F)cc13)CC(C)(C(=O)NC1CCCCC1)N(C(C)C)C2=O (stereo not given)
 : i | 0
Cc1cc(=O)n2[nH]c(CN(c3ccc(Cl)cc3)S(=O)(=O)c3ccccc3)nc2n1
 : i | -0.66
O=C(Nc1ccc2c(c1)OCCO2)c1ccc(Nc2cc(-c3ccccc3)ncn2)cc1
 : i | 2
CCn1c2c(c(SCc3ccc(F)cc3)nc1=O)CCC2
 : i | -1.1
CC1CCCN(CC2CCN(S(=O)(=O)Cc3ccccc3F)CC2)C1 (stereo not given)
 : i | -0.85
CCc1ccc(S(=O)(=O)N2CCCN(c3nc4cccnc4s3)CC2)cc1
 : i | -1.3
O=c1[nH]c2ccc(NCc3ccc(Cl)cc3)cc2[nH]1
 : i | 0.07
Cc1oc2ncn3nc(COc4cccc(Cl)c4)nc3c2c1C
 : i | -0.13
Nc1c(C(=O)N2CCCCC2)sc(=S)n1Cc1ccccc1
 : i | 0.06

# Single records, from the list above:
# CC1CCCN(CC2CCN(S(=O)(=O)Cc3ccccc3F)CC2)C1 (stereo not given) in the list: Anaer choline gr = i; Anaer choline gr early = -0.85
# O=c1[nH]c2ccc(NCc3ccc(Cl)cc3)cc2[nH]1 in the list: Anaer choline gr = i; Anaer choline gr early = 0.07

# (continued)
# Values in the order: Anaer choline gr | Anaer choline gr early
O=C1CCCc2c1cc(C(=O)NCCC1=CCCCC1)c(=O)n2-c1ccc(F)cc1
 : i | -0.86
O=C(CN1C(=O)C2CCCCN2c2ccc(S(=O)(=O)N3CCCCC3)cc21)NCc1ccccc1 (stereo not given)
 : i | -0.73
O=C(c1cccc(-c2nc(-c3cccc(F)c3)no2)c1)N1CCN(c2ccccn2)CC1
 : i | 1.3
O=C(CC1CCN(C(=O)C2CCCCC2)CC1)NC1CCCC1
 : i | 0.49
Cc1cc(-c2cc(S(=O)(=O)NCc3ccc(C)o3)c(C)s2)on1
 : i | -0.8
CCc1ccc2c(-c3cccc(Cl)c3)nc(=O)n(CC)c2n1
 : i | 1.1&0.53
O=c1ccc(-c2ccccc2)nn1CCc1nc(-c2ccc3c(c2)OCO3)no1
 : i | 0.96
CCCC(=O)Nc1ccc2c(c1)nc(CCNC(C)=O)n2C
 : i | -0.12
CCCNC(=O)c1cnc(N(C)C)nc1C
 : i | -0.07
O=C(COc1ncnc2onc(-c3ccccc3)c12)NC1CCCc2ccccc21 (stereo not given)
 : i | -0.47
CCSc1ncc2c(=O)n(CC(=O)Nc3ccc(F)c(Cl)c3)cnc2n1
 : i | 1.2
COC(=O)c1cccc(NC(=O)Nc2cc(NC(=O)c3ccccc3Cl)ccc2N2CCCCC2)c1
 : i | 0.69
Cc1onc(-c2ccc(Br)cc2)c1C(=O)N1CCCC1
 : i | -0.08
CN1CCC[C@@H]1Cc1c[nH]c2ccc(CCS(=O)(=O)c3ccccc3)cc12
 : i | 1.1&-0.49
Cn1c(=O)c(N2CCC(C(=O)NCc3ccccc3Cl)CC2)nc2ccccc21
 : i | -0.15

# (cont.)
Molecule | Anaer choline gr | Anaer choline gr early
Cc1nn(C)c2nc(NNC(=O)Nc3cc(Cl)nc(Cl)c3)cc(C(C)C)c12 | i | 0.11
COc1ccc(CCNC(=O)CCCN2C(=O)CCn3nc(C)cc32)cc1OC | i | -0.07
O=C1C(=O)N(C2CCN(C(=O)c3ccccc3)CC2)CCN1Cc1ccccc1 | i | 0.33
CC1CCc2noc(NC(=O)C(C)C)c2C1 (stereo not given) | i | -0.63
C#CCOc1ccc(C2CC(=O)Nc3c2cnn3-c2nc3ccccc3s2)cc1OCC (stereo not given) | i | 0.88
CCc1ccc2c(c1)-c1ccccc1S(=O)(=O)N2CC(=O)N1CCCC1 | i | 0.49
CC(C)(C)NC(=O)[C@H]1CC[C@H]2[C@@H]3CC[C@H]4NC(=O)C=C[C@]4(C)[C@H]3CC[C@]12C | i | 0.94&0.5
CC(C)c1cc(C2CCCN2C(=O)c2nn(C)cc2Cl)on1 (stereo not given) | i | 0.02
O=C(Nc1nnc2n1CCCS2)C1CCCCC1 | i | -1.8
CCOC(=O)c1nc(Nc2ccc(OC)c(Cl)c2)c2ccccc2n1 | i | 2.2
c1ccc(CCc2nnc3sc(-c4ccc5ccccc5n4)nn23)cc1 | i | 0.59
CCCOc1ccc(CNC(=O)CN2C(=O)CCn3nc(-c4cn(C)c5ccccc45)cc32)cc1 | i | 1.6

# Following part
Molecule | Anaer choline gr | Anaer choline gr early
O=C(O)c1cc(N2CCN(CC(=O)N3CCCCC3)CC2)ccc1NC(=O)C1CCCC1 | i | 0.82
C=Cc1ccc(COC(=O)c2nnn(-c3ccc(C)cc3)c2C)cc1 | i | 1.5
CCOC(=O)COc1ccc2c(=O)cc(-c3ccccc3)oc2c1 | i | -0.19
Cc1cc(C2CCCN2Cc2cccnc2)on1 (stereo not given) | i | 0.23
Cc1nc(N2CCC(C(=O)NCCC(C)C)CC2)c2c(C)c(C)oc2n1 | i | -0.66
O=C(Nc1ccccc1Cl)C1CCN(c2nnc(-n3cccc3)s2)CC1 | i | 0.64
COCCNC(=O)N1c2ccccc2NC2=C(C(=O)CC(C)(C)C2)C1c1ccccc1OC (stereo not given) | i | -0.35
CC(C)C[C@H](NC(=O)[C@@H](O)[C@H](N)Cc1ccccc1)C(=O)O | i | -0.92&0.25&-0.23&-0.5
CC(C)NC(=O)Cc1ccc(-n2c(=O)c3ccccc3n(CC(=O)NCc3ccccc3Cl)c2=O)cc1 | i | 0.74
O=C(Nc1ccc(-c2noc(C3CCC3)n2)cc1)Nc1ccc(Cl)cn1 | i | -0.47
COCCN1C(=O)c2ccccc2Sc2cc(NC(=O)CCC3CCCC3)ccc21 | i | -0.3
O=c1c(O)c(N2CCN(c3ccccc3)CC2)c1=O | i | 0.15

# Further entries:
Molecule | Anaer choline gr | Anaer choline gr early
Cc1cccnc1NC(=O)C1CCCN(c2ncnc3onc(C)c23)C1 (stereo not given) | i | -0.85
O=C(Nc1ccccc1)c1ccc(=O)n(Cc2ccccc2F)n1 | i | 0.34
CC(=O)N1CCCSc2ccc(S(=O)(=O)N3CCCCC3)cc21 | i | -1
CCOc1ccc(NS(=O)(=O)c2c(C)c(C)cc3c(C)c(C(=O)N4CCCC4)oc23)cc1 | i | 0.77
Cc1ccc(COC2CN(S(=O)(=O)c3ccc(C(C)(C)C)cc3)C2)cc1 | i | 0.04
CCN1C(=O)c2ccccc2Sc2cc(-c3noc(CNS(=O)(=O)c4ccccc4)n3)ccc21 | i | 1.2
O=C(Cn1ncc2c(c1=O)N(C1CC1)C(=O)CS2)NC1CCCCC1 | i | -1.5
CN(Cc1ccsc1)C(=O)NC1CCCC1 | i | -0.43
COc1cccc(CNC(=O)c2ccc(N3CCCC3)c(S(=O)(=O)N3CCCC3)c2)c1 | i | 0.76
O=C(NCc1cccnc1)c1ccc(Cn2c(SCc3ccc(F)cc3Cl)nc3ccncc32)cc1 | i | -0.5
CCOC(=O)C1CCN(c2cc(C(=O)Nc3ccc(OCC)cc3)ccn2)CC1 | i | -0.82
O=C(C1CCCO1)N1CCCn2nc(-c3cccs3)cc2C1 (stereo not given) | i | 0.74

# Remaining list, next part.
Molecule | Anaer choline gr | Anaer choline gr early
O=C(O)c1ccc(N2CCN(CC(=O)N3CCOCC3)CC2)c(NC(=O)c2ccc(Cl)cc2)c1 | i | 0.32
CCc1ccc(C2=CC(c3ccc(Cl)cc3)n3ncc(C(=O)Nc4ccccc4)c3N2)cc1 (stereo not given) | i | -0.6
COc1ccc(Cl)cc1S(=O)(=O)N1CSC[C@@H]1C(=O)NCc1csc(C)n1 | i | -0.33
COC(=O)c1cc(NC(=O)C2CCCN(S(=O)(=O)Cc3ccc(F)cc3)C2)ccc1Cl (stereo not given) | i | 0.34
C=Cc1ccc(COC(=O)c2nnn(-c3ccc(CC)cc3)c2C)cc1 | i | 2
CCOC(=O)c1[nH]c(C)c(CCC(=O)N2CCN(c3cccc(OC)c3)CC2)c1C | i | -0.3
CCN(CC)S(=O)(=O)c1ccc2c(c1)cc(C(=O)N1CCN(c3cccc(C)c3C)CC1)n2C | i | 2
CSc1nc(NCCN(C)C)c(C#N)c(-c2ccccc2)n1 | i | -0.01
Cc1nn(-c2ccc(-c3noc(C4CCC4)n3)cc2)cc1C(=O)Nc1ccc2c(c1)OCCO2 | i | -0.84
O=C(c1cccc(Nc2ccc(-c3ccccc3)nn2)c1)N1CCCC1 | i | -0.36
O=C(NCCN1CCCC1)c1cc2n(n1)CCCN(Cc1cccc(F)c1)C2=O | i | 0.07
Cc1ccccc1NC(=O)C1CCN(c2nc3ccccc3[nH]2)CC1 | i | -1.4

# New compounds follow.
Molecule | Anaer choline gr | Anaer choline gr early
COc1ccc(-c2nc3ccccc3nc2-c2ccccc2)cc1 | i | 0.72
Cc1cc(C)cc(S(=O)(=O)N2CCOc3ccc(COCc4cccc(F)c4)cc3C2)c1 | i | 1.7
Cc1noc2ncnc(NCc3cccc(Cl)c3)c12 | i | -2.8
CCCn1c(CN2CCC(C)CC2)nc2cc(NC(C)=O)ccc21 | i | -0.05
Cc1nc(-c2cc(S(=O)(=O)NC3CCCCC3)c(C)s2)no1 | i | -0.76

# These rows are one share of the data. The share of hits here may be higher or lower than overall.
